ID4 SMM = binders of human ID4 protein, primary screen, biochemical, small molecule microarray, single point; DNA-binding protein inhibitor ID-4 (Homo sapiens), P47928; Flag-ID4 binding, fluorescence F/B; calls only; actives 1.2% (n = 31,000); AID 624137, 2012;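 active means spot signal over background at p below 0.07 in all four prints; compounds were printed on slides so no solution concentration is given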;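 further: a binder raises fluorescence above local background on the spot; about 2 pmol printed per array spot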
Target sequence (P47928 whole entry, looked up): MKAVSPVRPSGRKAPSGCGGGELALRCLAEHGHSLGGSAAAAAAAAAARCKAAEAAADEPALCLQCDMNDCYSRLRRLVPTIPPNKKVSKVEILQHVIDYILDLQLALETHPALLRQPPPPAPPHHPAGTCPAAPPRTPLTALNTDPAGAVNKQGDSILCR
Calls only. This is a subset. The share of hits here may be higher or lower than overall.

`CCS(=O)(=O)N[C@H]1C=C[C@@H](CC(=O)NCc2ccc(Cl)cc2)O[C@H]1CO` gave ID4 SMM inactive.
Screening CCN1CCOC(CC(=O)Nc2cc(OC)cc(OC)c2)C1=O (stereo not given) returned ID4 SMM inactive.
For O=C(N[C@H]1C=C[C@H](CC(=O)N2CCCCC2)O[C@H]1CO)c1cccc(F)c1 the results were ID4 SMM inactive.
C/C=C/c1cnc2c(c1)C(=O)N([C@@H](C)CO)C[C@@H](C)[C@@H](CN(C)C(=O)Cc1ccccc1)O2 was read as ID4 SMM inactive.
Screening O=C(NCCN1CCOCC1)c1ccc(NC(=O)C2COc3ccccc3O2)cc1 (stereo not given) returned ID4 SMM inactive.
`Cc1ccc(-c2cnc3c(c2)C(=O)N([C@@H](C)CO)C[C@@H](C)[C@@H](CN(C)CC2CCOCC2)O3)cc1` gave ID4 SMM inactive.
Screening CC(=O)c1cccc(NC(=O)Nc2cccc(S(=O)(=O)N3CCOCC3)c2)c1 returned ID4 SMM inactive.
C[C@@H]1CN([C@H](C)CO)C(=O)Cc2cc(NC(=O)C3CC3)ccc2O[C@H]1CN(C)CC1CCCCC1 was read as ID4 SMM inactive.
`O=C(CSc1nnc(-c2ccc(Br)cc2)o1)Nc1ccc(Cl)c(Cl)c1` gave ID4 SMM inactive.
Screening COCC(=O)N[C@@H]1CC[C@@H](CC(=O)N2CCCCC2)O[C@@H]1CO returned ID4 SMM inactive.
`O=C(CSc1nc2ccccc2[nH]1)Nc1ccc2c(c1)oc1ccccc12` gave ID4 SMM inactive.
`CNC(=O)CCC(=O)Nc1ccc(C(=O)OC)cc1` gave ID4 SMM inactive.
Screening CNC[C@H]1Oc2cc(C#CCC(C)C)ccc2S(=O)(=O)N([C@@H](C)CO)C[C@@H]1C returned ID4 SMM inactive.
For O=C(C[C@H]1C[C@@H]2c3cc(NC(=O)Cc4ccncc4)ccc3O[C@@H]2[C@@H](CO)O1)NCc1ccc2c(c1)OCO2 the results were ID4 SMM inactive.
Screening C[C@@H]1CN([C@H](C)CO)C(=O)c2cc(C#Cc3ccccc3)cnc2O[C@H]1CN(C)C(=O)C1CC1 returned ID4 SMM inactive.
CNC[C@@H]1Oc2cc(C#Cc3ccc(F)cc3)ccc2S(=O)(=O)N([C@H](C)CO)C[C@H]1C was read as ID4 SMM inactive.
For CC(C)C#Cc1cnc2c(c1)C(=O)N([C@@H](C)CO)C[C@H](C)[C@@H](CN(C)Cc1ccccc1F)O2 the results were ID4 SMM inactive.
`CC1=Nc2ccc(C)cc2/C1=C\c1c(N)n2nc(S(=O)(=O)CC(C)C)sc2nc1=O` gave ID4 SMM inactive.
`Nc1cc(=O)[nH]c(SCC(=O)NCc2ccco2)n1` gave ID4 SMM inactive.
For O=C(C[C@@H]1C=C[C@@H](NC(=O)CCN2CCCCC2)[C@H](CO)O1)Nc1ccc(-c2ccccc2)cc1 the results were ID4 SMM inactive.
O=C(C[C@@H]1C=C[C@H](NC(=O)CCN2CCCCC2)[C@H](CO)O1)NCc1ccc(Cl)c(Cl)c1 was read as ID4 SMM inactive.
Screening C[C@@H]1CN([C@H](C)CO)C(=O)c2cc(-c3ccccc3F)cnc2O[C@@H]1CN(C)Cc1ccccc1 returned ID4 SMM inactive.
For O=C(C[C@H]1C=C[C@H](NC(=O)CN2CCOCC2)[C@H](CO)O1)NC1CCCCC1 the results were ID4 SMM inactive.
O=C(CSc1nc2ccccc2c(=O)[nH]1)Nc1cccc([N+](=O)[O-])c1 was read as ID4 SMM inactive.
For C[C@H](CO)N1C[C@H](C)[C@@H](CN(C)C(=O)c2ccc3c(c2)OCO3)Oc2cc(-c3ccccc3)ccc2S1(=O)=O the results were ID4 SMM inactive.
Screening C[C@@H]1CN([C@H](C)CO)C(=O)c2cccc(N(C)C)c2O[C@H]1CN(C)C(=O)Nc1ccccc1 returned ID4 SMM inactive.
For COc1ccccc1NC(=O)CSC1CC(=O)N(c2ccc(C)cc2)C1=O (stereo not given) the results were ID4 SMM inactive.
For O=C(C[C@@H]1C=C[C@H](NC(=O)C2CC2)[C@@H](CO)O1)NCc1ccncc1 the results were ID4 SMM inactive.
`COc1ccc(C(C)C)cc1S(=O)(=O)n1cnc2ccccc21` gave ID4 SMM inactive.
For COc1ccc(NC(=O)Nc2ccc3c(c2)[C@H]2C[C@H](CC(=O)NCC4CC4)O[C@H](CO)[C@H]2O3)cc1 the results were ID4 SMM inactive.
CCCNC(=O)N[C@H]1C=C[C@H](CC(=O)N2CCN(C)CC2)O[C@H]1CO was read as ID4 SMM inactive.
C[C@@H]1CN([C@H](C)CO)S(=O)(=O)c2ccc(C#Cc3ccc(F)cc3)cc2O[C@@H]1CN(C)C(=O)NC1CCCC1 was read as ID4 SMM inactive.
For CC1(C)S[C@@H]2[C@H](NC(=O)[C@H](NC(=O)N3CCNC3=O)c3ccccc3)C(=O)N2[C@H]1C(=O)O the results were ID4 SMM inactive.
`CN1CCc2cc(Cl)c(O)cc2[C@@H](c2ccccc2)C1` gave ID4 SMM inactive.
COc1cccc2cc(C(=O)CC3(O)C(=O)N(Cc4ccccc4)c4ccc(Br)cc43)c(=O)oc12 (stereo not given) was read as ID4 SMM inactive.
For CCN(CC(N)=O)S(=O)(=O)c1ccc2ccccc2c1 the results were ID4 SMM inactive.
`COc1ccccc1S(=O)(=O)N[C@H]1C=C[C@H](CC(=O)NCc2cccc(F)c2)O[C@H]1CO` gave ID4 SMM inactive.
`C[C@H]1CN([C@@H](C)CO)C(=O)c2cc(NC(=O)C3CCCCC3)ccc2O[C@@H]1CN(C)CC1CC1` gave ID4 SMM inactive.
`O=C(C[C@H]1CC[C@@H](NC(=O)c2cccnc2)[C@@H](CO)O1)NCc1ccc(Cl)c(Cl)c1` gave ID4 SMM inactive.
For CN(C)C(=O)C[C@@H]1C=C[C@@H](NC(=O)C2CC2)[C@H](CO)O1 the results were ID4 SMM inactive.
Screening Cc1c(NC(=O)CN2c3cccc4cccc(c34)S2(=O)=O)c(=O)n(-c2ccccc2)n1C returned ID4 SMM inactive.
`CC1(C)CC[C@]2(C(=O)O[C@@H]3O[C@H](CO)[C@@H](O)[C@H](O)[C@H]3O)CC[C@]3(C)C(=CCC4[C@@]5(C)CC[C@H](O[C@@H]6O[C@H](CO)[C@@H](O)[C@H](O)[C@H]6O)[C@@](C)(CO)C5CC[C@]43C)[C@@H]2C1` (stereo not given in full) gave ID4 SMM inactive.
CCCN(C)C[C@H]1Oc2ncc(-c3cccnc3)cc2C(=O)N([C@H](C)CO)C[C@@H]1C was read as ID4 SMM inactive.
COc1cccc(NC(=O)N[C@@H]2CC[C@H](CC(=O)Nc3ccc(-c4ccccc4)cc3)O[C@H]2CO)c1 was read as ID4 SMM inactive.
Screening C[C@@H]1CN([C@H](C)CO)C(=O)c2c(c3ccccc3n2C)-c2ccccc2CO[C@@H]1CN(C)S(=O)(=O)c1ccccc1C#N returned ID4 SMM inactive.
Screening COc1ccc(C)cc1N(CC(=O)N1CCN(c2cc(Cl)ccc2C)CC1)S(C)(=O)=O returned ID4 SMM inactive.
Screening C[C@@H]1CN([C@@H](C)CO)C(=O)c2cc(C#CC3CC3)cnc2O[C@H]1CN(C)Cc1ccncc1 returned ID4 SMM inactive.
`Cc1ccc(C)c(OCC(=O)Nc2ccccc2C#N)c1` gave ID4 SMM inactive.
`NS(=O)(=O)c1ccc(NC(=O)CSc2ncnc3sc4c(c23)CCCCC4)cc1` gave ID4 SMM inactive.
Screening COC(=O)C[C@@H]1CC[C@H](NS(=O)(=O)c2ccc(OC)cc2)[C@H](CO)O1 returned ID4 SMM inactive.
For O=C(CSc1nnc(-c2cccc(Cl)c2)n1-c1ccccc1)Nc1ccccc1 the results were ID4 SMM inactive.
Screening COc1cccc(-c2ccc3c(c2)O[C@H](CN(C)CC2CC2)[C@H](C)CN([C@H](C)CO)S3(=O)=O)c1 returned ID4 SMM inactive.
`Cc1cccc(CN(C)C[C@@H]2OCc3cn(nn3)CCCC(=O)N([C@H](C)CO)C[C@H]2C)c1` gave ID4 SMM inactive.
Screening C[C@@H]1CN([C@H](C)CO)S(=O)(=O)c2ccc(C#CC3CCCC3)cc2O[C@H]1CN(C)C returned ID4 SMM inactive.
`Cn1c(SCC(=O)Nc2ccc(Oc3ccccc3)cc2)nnc1-c1cccs1` gave ID4 SMM inactive.
Screening Cc1ccc(S(=O)(=O)N(C)C[C@H]2Oc3cc(C#CC4CCCC4)ccc3S(=O)(=O)N([C@@H](C)CO)C[C@@H]2C)cc1 returned ID4 SMM inactive.
`COc1ccc(-c2nn(-c3ccccc3)cc2C(=O)NCC(=O)c2ccccc2)cc1OC` gave ID4 SMM inactive.
CCOC(=O)c1c(NC(=O)C2CC(c3ccccc3Cl)=NO2)sc(C)c1C (stereo not given) was read as ID4 SMM inactive.
For C[C@H](CO)N1C[C@H](C)[C@H](CN(C)Cc2ccncc2)Oc2ncc(-c3ccc(F)cc3)cc2C1=O the results were ID4 SMM inactive.
Screening C[C@H](CO)N1C[C@H](C)[C@@H](CN(C)Cc2ccc(Oc3ccccc3)cc2)Oc2ncc(-c3cncnc3)cc2C1=O returned ID4 SMM inactive.
C[C@H](CO)N1C[C@H](C)[C@H](CN(C)C(=O)CN(C)C)Oc2ncc(-c3ccccc3F)cc2C1=O was read as ID4 SMM inactive.
Screening C[C@H](CO)N1C[C@H](C)[C@H](CN(C)Cc2ccncc2)Oc2ncc(-c3cccc(F)c3)cc2C1=O returned ID4 SMM inactive.
CCc1cc(Br)cc(C)c1NC(=O)CSc1nnc(-c2ccc(Cl)cc2)n1C was read as ID4 SMM inactive.
For O=S(=O)(Nc1ccc(O)c(Sc2nc3ccccc3s2)c1)c1ccccc1 the results were ID4 SMM inactive.
CCCN(C)C[C@H]1Oc2cc(/C=C/c3ccccc3)ccc2S(=O)(=O)N([C@@H](C)CO)C[C@H]1C was read as ID4 SMM inactive.
C[C@H]1CN([C@@H](C)CO)C(=O)c2cc(C#Cc3ccccn3)cnc2O[C@H]1CN(C)CC1CCCC1 was read as ID4 SMM inactive.
For Cn1c(CN2CCOCC2)nnc1SCC(=O)Nc1sc2c(c1C#N)CCC(C(C)(C)C)C2 (stereo not given) the results were ID4 SMM inactive.
Screening C[C@@H]1CN([C@H](C)CO)C(=O)c2cc(C#CC3(O)CCCC3)cnc2O[C@@H]1CN(C)Cc1ccccc1 returned ID4 SMM inactive.
`O=C(C[C@@H]1C[C@@H]2c3cc(NC(=O)c4cccnc4)ccc3O[C@@H]2[C@@H](CO)O1)NCc1cc(F)ccc1F` gave ID4 SMM inactive.
`CCCN(C)C[C@@H]1Oc2ncc(-c3cccnc3)cc2C(=O)N([C@H](C)CO)C[C@H]1C` gave ID4 SMM inactive.
CC(C)CC#Cc1cnc2c(c1)C(=O)N([C@H](C)CO)C[C@H](C)[C@H](CN(C)C(=O)C1CCCCC1)O2 was read as ID4 SMM inactive.
Cc1ccc(C(C)C)c(OCCSc2ncnc3nc[nH]c23)c1 was read as ID4 SMM inactive.
For O=C(Nc1cc(F)ccc1F)N[C@@H]1C=C[C@H](CC(=O)N2CCc3ccccc3C2)O[C@H]1CO the results were ID4 SMM inactive.
Screening Cc1ccc(-c2cc(-c3c(C)nn(C)c(=O)c3N)[nH]n2)cc1 returned ID4 SMM inactive.
`C[C@@H]1CN([C@H](C)CO)C(=O)c2cc(C#Cc3cccnc3)cnc2O[C@@H]1CN(C)C` gave ID4 SMM inactive.
C[C@H]1CN([C@@H](C)CO)S(=O)(=O)c2ccc(-c3cccc(F)c3)cc2O[C@@H]1CN(C)S(C)(=O)=O was read as ID4 SMM inactive.
`Cc1cccc(NC(=O)CSc2nc(-c3ccccc3)c(-c3ccccc3)[nH]2)c1C` gave ID4 SMM inactive.
O=C(NC1CCCC1)c1c(NC(=O)c2cc(-c3cccnc3)nc3ccccc23)sc2c1CCCC2 was read as ID4 SMM inactive.
C[C@H]1CN([C@@H](C)CO)S(=O)(=O)c2ccc(-c3cncnc3)cc2O[C@H]1CN(C)Cc1ccc(Oc2ccccc2)cc1 was read as ID4 SMM inactive.
Screening CC(C)CC#Cc1cnc2c(c1)C(=O)N([C@H](C)CO)C[C@H](C)[C@@H](CN(C)Cc1ccc(F)cc1)O2 returned ID4 SMM inactive.
`COC(=O)c1c(C)ncc2c1COC(C)OC2` (stereo not given) gave ID4 SMM inactive.
Screening Cc1ccccc1-c1ccc2c(c1)O[C@@H](CN(C)CC1CC1)[C@@H](C)CN([C@H](C)CO)S2(=O)=O returned ID4 SMM inactive.
O=C(Nc1ccc(S(=O)(=O)NCC2CCCO2)cc1)c1cc(-c2ccccc2)nc2ccccc12 (stereo not given) was read as ID4 SMM inactive.
`C[C@@H]1CN([C@@H](C)CO)C(=O)c2cc(-c3cccc(F)c3)cnc2O[C@@H]1CN(C)Cc1cccnc1` gave ID4 SMM inactive.
CC(Sc1ncnc2sc(-c3ccccc3)cc12)C(=O)Nc1cc(Cl)ccc1Cl (stereo not given) was read as ID4 SMM inactive.

Among those listed so far, these have a Cl atom.
`CCS(=O)(=O)N[C@H]1C=C[C@@H](CC(=O)NCc2ccc(Cl)cc2)O[C@H]1CO` gave ID4 SMM inactive.
`O=C(CSc1nnc(-c2ccc(Br)cc2)o1)Nc1ccc(Cl)c(Cl)c1` gave ID4 SMM inactive.
O=C(C[C@@H]1C=C[C@H](NC(=O)CCN2CCCCC2)[C@H](CO)O1)NCc1ccc(Cl)c(Cl)c1 was read as ID4 SMM inactive.
`CN1CCc2cc(Cl)c(O)cc2[C@@H](c2ccccc2)C1` gave ID4 SMM inactive.
`O=C(C[C@H]1CC[C@@H](NC(=O)c2cccnc2)[C@@H](CO)O1)NCc1ccc(Cl)c(Cl)c1` gave ID4 SMM inactive.
Screening COc1ccc(C)cc1N(CC(=O)N1CCN(c2cc(Cl)ccc2C)CC1)S(C)(=O)=O returned ID4 SMM inactive.
For O=C(CSc1nnc(-c2cccc(Cl)c2)n1-c1ccccc1)Nc1ccccc1 the results were ID4 SMM inactive.
CCOC(=O)c1c(NC(=O)C2CC(c3ccccc3Cl)=NO2)sc(C)c1C (stereo not given) was read as ID4 SMM inactive.
CCc1cc(Br)cc(C)c1NC(=O)CSc1nnc(-c2ccc(Cl)cc2)n1C was read as ID4 SMM inactive.
CC(Sc1ncnc2sc(-c3ccccc3)cc12)C(=O)Nc1cc(Cl)ccc1Cl (stereo not given) was read as ID4 SMM inactive.
